2A StopGo = FMDV 2A StopGo reporter, luciferase signal; human cells with a luciferase reporter of 2A StopGo recoding; control for the full effect not named in the record; 1.2% of 410,000 active; Potency, µM (highest dose often 57.9 µM), without a hit: at the top dose signal change, negative = less light; AID 1159524; active = well fitted falling curve with a large enough effect; inconclusive = small, poorly fitted or top-dose-only effect; inactive = no such curve, though single readings can be large or run the other way; tested in HEK293T cells; note: nearly all actives have a fitted effect of over 45% in size; luciferase light after 4 h
RE007 growth inh = less growth of the S. pombe RE007 Vpr strain | S. pombe RE007 Vpr strain, BacTiter-Glo ATP luminescence, 24 h; control for the full effect not named in the record | Potency, µM (series often up to 92.2 µM), for the others: at the highest dose activity change, negative = less growth | 0.21% of 360,000 active | AID 651644; active = well fitted falling curve with a large enough effect; inconclusive = small, poorly fitted or top-dose-only effect; inactive = no such curve, though single readings can be large or run the other way;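 note: nearly all actives have a fitted effect of over 50% in size; the assay follows cell death caused by Vpr and the record does not say whether a fall means rescue or toxicity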
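Fission yeast strain RE007, carrying one chromosomally integrated HIV-1 vpr copy, was seeded at OD 0.01 in PMG+AL medium with 23 nL pinned compound. After 24 h at 30 °C and 99% humidity, viability was read by BacTiter-Glo luminescence.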
* = called active by the depositor; ? = inconclusive; [ ] = another dose, or the depositor's remark. % is set by controls: 0 for no effect and ±100 for the full control effect; potency is the fitted concentration of half-maximal effect. Not all compounds are listed. The share of hits here may be higher or lower than overall.

Molecule	2A StopGo	RE007 growth inh
COc1cccc(S(=O)(=O)N(C)C[C@@H]2OCc3cnnn3CCCC(=O)N([C@@H](C)CO)C[C@@H]2C)c1	0%	1%
Cc1cc(Nc2ccc(Br)cc2)nc2ccccc12	36%[activator]	?
CC(C)C[C@H]1CN(CCCC[C@H]2CNC(=O)C(=O)N2CCc2ccc(O)cc2)C(=O)C(=O)N1CCc1ccc(O)cc1	-18%	-11%
O=C(C[C@H]1CC[C@H]2[C@@H](COC[C@@H](O)CN2S(=O)(=O)c2ccc(F)cc2)O1)N[C@@H]1CCN(Cc2ccccc2)C1	-19%	-17%
CN(C)CCNC(=O)c1ccc(-c2cn3c(-c4ccc(Oc5ccccc5)cc4)cnc3cn2)cc1	-18%	-17%[18.4 µM]
CCOC(=O)C1=C(C)N(CCCC(=O)O)C(=O)NC1c1ccccc1 (configuration not stated)	-10%	19%
Nc1ncnc2c1ncn2[C@@H]1O[C@H](C(=O)N[C@H]2c3ccccc3C[C@H]2O)[C@@H](O)[C@H]1O	-5%	7%
N#CCC(=O)Nc1ccc(C(=O)OC(C(=O)Nc2ccc([N+](=O)[O-])cc2Br)c2ccccc2)cc1 (configuration not stated)	-15%	4%
CN(C)Cc1csc(NC(=O)Nc2ccccc2-c2ccccc2)n1	-13%	-14%
CN(Cc1ccccc1)C(=O)c1ccc2nc([C@@H]3O[C@H](CO)[C@H](O)[C@H](O)[C@H]3O)[nH]c2c1	-6%	8%[18.4 µM]
CSc1ccccc1NC(=O)C1(C)CCN1C(=O)Cc1ccc(-c2ccccc2)cc1 (configuration not stated)	?	5%[18.4 µM]
O=NN(CC(=O)NNc1ccccc1)CC(=O)NNc1ccccc1	-4%	204%
CC1(C)CC(=O)C=C(c2ccccc2CO)C1=O	-20%	-2%
CCCCOCCCNC(=O)C[C@@H]1C[C@@]2(C(=O)OC)CCCCC=C2N(Cc2ccc3c(c2)OCO3)C1=O	-27%	-16%
COC(=O)N1CCCCC1c1cc(C(=O)Nc2cccc3c2CCCC3)no1 (configuration not stated)	-10%	16%
C=CCN(C(C(=O)OC)C(C)C)S(=O)(=O)CCNCc1ccccc1 (configuration not stated)	-12%	2%
CCOc1ccc(-c2cc(C(=O)Nc3ccc(C)c(NS(C)(=O)=O)c3)[nH]n2)c(C)c1	?	-9%
Nc1nc2ncccn2c1-c1ccc(F)c(F)c1	-12%	-10%
Cc1nc(-c2ccccc2)sc1C1(C)CC(c2cccc(F)c2)=NO1 (configuration not stated)	2%	-31%
CCCCn1nnnc1C(c1ccccc1)N1CCN(C)CC1 (configuration not stated)	22%	2%
CCc1ccc(N2CC(C(=O)Nc3ccc(OC)c(S(=O)(=O)N4CCOCC4)c3)CC2=O)cc1 (configuration not stated)	-19%	2%
COc1ccc(-c2nc3cc(C)c(Br)c(C)n3c2Cc2ccccc2C(F)(F)F)cc1OC	-17%	-17%
N#CCC(C(=O)c1cccnc1)c1ccccc1 (configuration not stated)	-20%	0%
COC(=O)[C@@]12C[C@@H](CC(=O)NCc3ccc(C)o3)C(=O)N(Cc3ccccc3)C1=CCC(C)(C)C2	-14%	8%

Molecules shown so far containing a cyano group (two):
Molecule	2A StopGo	RE007 growth inh
N#CCC(=O)Nc1ccc(C(=O)OC(C(=O)Nc2ccc([N+](=O)[O-])cc2Br)c2ccccc2)cc1 (configuration not stated)	-15%	4%
N#CCC(C(=O)c1cccnc1)c1ccccc1 (configuration not stated)	-20%	0%

New compounds follow
Molecule	2A StopGo	RE007 growth inh
CC(C)(C)NC(=O)C(c1ccncc1)n1c(=O)c(-c2ccco2)nc2ccccc21 (configuration not stated)	-4%	0%
CC(Sc1nc(N)cc(=O)[nH]1)C(=O)Nc1ccc(N2CCOCC2)cc1 (configuration not stated)	-17%	5%
CC(C)(C)S(=O)N1Cc2cc(C(=O)NCc3ccc4c(c3)OCO4)nc(-c3cccc(-c4ccccc4)c3)c2[C@@H]1CCO (some centres not stated)	-24%	-10%
Cc1noc(C)c1Cn1c(C)c(C(=O)NCc2ccc3c(c2)OCCO3)sc1=O	-12%	3%[18.4 µM]
Cc1nc2c(OCc3ccc(Cl)cc3)cccn2c1N(C)Cc1cccs1	?	4%
O=C(N/C(=C/c1ccc(F)cc1)C(=O)N1CCOCC1)c1ccco1	-12%	2%
Cn1c(Nc2ccc(Cl)cc2F)nc2cc(-c3ccccc3)sc2c1=O	0%	-6%
CCOC1=CC(=O)N(Cc2ccccc2)C1	-14%	11%

Reprinted from the part before: three compounds, then new ones.
Molecule	2A StopGo	RE007 growth inh
O=C(N/C(=C/c1ccc(F)cc1)C(=O)N1CCOCC1)c1ccco1	-12%	2%
Cn1c(Nc2ccc(Cl)cc2F)nc2cc(-c3ccccc3)sc2c1=O	0%	-6%
CCOC1=CC(=O)N(Cc2ccccc2)C1	-14%	11%
COC(=O)C1(C(=O)OC)C[C@H](c2ccccc2)N(Cc2ccccc2OC)[C@@H]1c1ccccc1	-28%	-3%
O=C(c1cccs1)N1CCC(C(=O)O)(c2ccccc2)CC1	-18%	-7%
Cc1nc2ccccc2c(=O)n1-c1nccs1	7%	0%[18.4 µM]
O=C(Cc1cccc(NC(=O)C2CCCN(C(=O)CCc3ccccc3)C2)c1)Nc1ccc(C(=O)N2CCOCC2)cc1 (configuration not stated)	-14%	-21%
C#CCN(C[C@H]1[C@H](OC(=O)NCc2ccc(OC)c(OC)c2)[C@H](OC(=O)NCc2ccc(OC)c(OC)c2)C[C@@H](C(=O)OC)[C@H]1C(=O)OC)S(=O)(=O)c1ccc(C)cc1	?	-1%
CN(Cc1ccccc1)S(=O)(=O)c1ccc(NC(=O)c2ccccc2C(=O)O)cc1	-15%	-11%
Cc1cn([C@H]2C[C@H](O)[C@@H](CNCc3cccn3-c3ccncc3)O2)c(=O)[nH]c1=O	-4%	-10%
Nc1nc2c(ncn2[C@@H]2O[C@H](CNCc3cnc(N4CCOCC4)nc3)[C@@H](O)[C@H]2O)c(=O)[nH]1	-5%	6%
Cc1ccc2nc3n(c(=O)c2c1)-c1ncccc1C(=O)NC3Cc1ccc(O)cc1 (configuration not stated)	?	-7%
Cn1c(NCc2ccccc2F)nc2cc(-c3cccc(C(F)(F)F)c3)sc2c1=O	-2%	11%
O=C1Nc2ccccc2-c2nnnn2C1N1CCCC1 (configuration not stated)	-18%	10%
COc1ccc(NC(=O)N[C@H]2CC[C@@H](CC(=O)NC3CCC3)O[C@@H]2CO)cc1	-8%	8%
COc1cc(F)ccc1-c1cc(C(=O)NCC2CCCCC2)[nH]n1	-1%	3%[18.4 µM]
CC(C)(C)OC(=O)N1CCN(C(=O)c2ncn3c2c(=O)[nH]c2ccccc23)CC1	-11%	9%
Cc1ccc2nc(-c3ccccc3)c(Cc3cccc(Cl)c3)n2c1	2%	-28%
Nc1ccn([C@@H]2O[C@H](C(=O)N3CCSC3)[C@@H](O)[C@H]2O)c(=O)n1	-12%	6%
COCOc1ccc(-c2ncc(OCCN3CCCC3=O)nc2NC(=O)c2cc3ccccc3s2)cc1	-13%	3%
COc1cccc(-c2cnc(C(O)c3cc(C)ccc3C)[nH]2)c1 (configuration not stated)	27%	-8%
CC1(Oc2ccc(Cl)cc2)CCN(Cc2cccn2-c2nccs2)C1 (configuration not stated)	-21%	-23%
COc1ccc(S(=O)(=O)N(C)[C@H]2C[C@H]3c4cc(-c5ccccc5)ccc4CCN3C(=O)[C@H]2[C@H](C)O)cc1	-19%	-10%
C[C@H](c1ccccc1)N1C[C@H](COCc2ccccc2)Oc2cc(N3CC[C@@H](O)C3)ccc2S1(=O)=O	30%	3%
COc1ccc(C(N)c2csc(NC(=O)Nc3cccc(C(F)(F)F)c3)n2)cc1 (configuration not stated)	-19%	-9%
Cc1ccc(C2(C)NC(=O)N(CC(=O)N3CCN(S(=O)(=O)c4ccccc4[N+](=O)[O-])CC3)C2=O)cc1 (configuration not stated)	-7%	-22%
COc1ccc(-n2nc3c(c2NC(=O)COc2ccccc2OC)CS(=O)(=O)C3)cc1	0%	3%
CCCCNC(=O)c1nc(-c2cccnc2OC)oc1-c1ccc(Cl)cc1	-18%	-2%
O=C1c2ccccc2-n2nncc2C2c3cc(Br)ccc3CCN12 (configuration not stated)	-23%	2%
C[C@H]1COc2cccc(N3CCSCC3)c2S(=O)(=O)N1	-19%	20%
COCCNC(=O)C1CCCN(C(=O)c2sccc2C)CC1 (configuration not stated)	-5%	-3%[18.4 µM]
Cc1ccccc1CN1C(=O)CSCC1(C)C(=O)Nc1ccc2c(c1)OCCO2 (configuration not stated)	-8%	-21%
O=C(NCc1cccc(Cl)c1)C1Cc2c(-c3ccccc3Oc3ccccc3)ccnc2O1 (configuration not stated)	-20%	-16%[18.4 µM]
COCCNc1nc(NCc2cc(-c3ccc(OC)cc3)no2)c2sccc2n1	?	-19%
CCOC(=O)C1=CCN(S(=O)(=O)c2ccccc2Cl)C1c1cccc(Cl)c1 (configuration not stated)	-2%	-4%
O=C(CCC1CCN(Cc2nccs2)CC1)Nc1ccccc1	13%	2%
CCOC1=C2[C@@H](CN(S(=O)(=O)c3ccc(C)cc3)[C@H]2c2cccc3ccccc23)[C@H]2C(=O)N(CC)C(=O)[C@H]2C1	7%	-2%
CN(C)c1ncnc2c1ncn2[C@H]1CN(Cc2ccco2)C[C@@H](CO)O1	26%	7%
CC(=O)Nc1ccc(NCCc2cccs2)cc1	22%	41%
COc1ccc(C(CC(C)=O)c2c(O)c3ccccc3oc2=O)cc1OC (configuration not stated)	-4%	5%
O=C(c1ccco1)N1CCN(C2CN(CCc3ccccc3)S(=O)(=O)C2)CC1 (configuration not stated)	-13%	8%
O=C(NCC(=O)N1CCCC1)NN=Cc1ccccc1O	33%[activator]	-3%[18.4 µM]
O=C(NC1CC1)c1cccc(NC(=O)C2CC2)c1	-19%	-9%
Nc1ccn([C@@H]2O[C@H](CNCc3ccc(-c4cc(C(F)(F)F)ccc4Cl)o3)[C@@H](O)[C@H]2O)c(=O)n1	0%	-19%
COc1ccc(NC(=O)CNc2ccc(OC)c(S(=O)(=O)N3CCOCC3)c2)cc1	-3%	2%
COC(=O)C(C#N)(CCC(=O)c1ccccc1)CCC(=O)c1ccccc1	-13%	-4%[18.4 µM]
O=C(NCc1ccncc1)[C@@H]1CCCN1C(=O)[C@@H]1CCCN1	-7%	5%
O=C(NC(c1ccc2c(c1)OCO2)c1ccccn1)C1CCN(CCOc2ccccc2)CC1 (configuration not stated)	7%	-18%
OC(c1ccccc1)(c1nc(/C=C/c2ccc(C(F)(F)F)cc2)cs1)C(F)(F)F (configuration not stated)	-22%	-13%[18.4 µM]
COc1ccccc1-c1cc2nc(NCCOc3ccccc3)ccn2n1	-16%	-19%
COc1ccc(-c2sc(Nc3cccc4ccccc34)n[n+]2C)c(C)c1C	3%	6%
COc1cc(C)ccc1S(=O)(=O)NC(=O)Cn1nnc(COc2ccc3c(c2)CCCC3)c1C	-13%	-13%
CC(C)C(=O)Nc1cccc(COc2ccccc2CN(Cc2ccccc2)C(=O)OC(C)(C)C)c1	?	-16%
COC(=O)c1cccc(NC(=O)CCN2C(=O)NC(C)(C)C2=O)c1	-14%	-6%
C[C@H](CO)N1C[C@H](C)[C@@H](CN(C)Cc2ccc3c(c2)OCO3)OCc2cnnn2CCCC1=O	-6%	3%
Oc1ccc(C[C@H]2CN([C@@H](Cc3cccc(O)c3)CN3CCC[C@@H]3CN3C(=S)NC[C@@H]3Cc3ccccc3)C(=S)N2CC2CCCCC2)cc1	?	12%
CCc1nc2c(OCc3ccccc3C(=O)OC)cccn2c1N(C)C(=O)c1ccncc1	-9%	2%[18.4 µM]
O=C(Nc1ccc2ccccc2c1)C(c1ccccc1F)n1c(=O)c(-c2cc3ccccc3[nH]2)nc2ccccc21 (configuration not stated)	3%	-4%
COc1ccc(C(C)(O)c2nc(-c3cccc(C#N)c3)cs2)cc1 (configuration not stated)	-21%	32%

The listing continues:
Molecule	2A StopGo	RE007 growth inh
O=[N+]([O-])c1cccc(S(=O)(=O)Nc2ccccn2)c1	30%[activator]	15%
CSCCC(c1nnnn1C1CCCCC1)N1CCC(n2c(=O)[nH]c3ccccc32)CC1 (configuration not stated)	?	5%
COC(=O)C1=CN(c2ccc(C(C)(C)C)cc2)C(N)=C(C#N)C1c1cccc2ccccc12 (configuration not stated)	-4%	-23%
CCCCC[C@@H](C)N1C[C@@H](COCc2ccccc2)Oc2cc(N3CCC[C@H]3C(N)=O)ccc2S1(=O)=O	1%	3%
COc1ccc(-c2ccc(CN3C(C(C)C)C(=O)N(Cc4cn(CCC5OCCCO5)nn4)CCS3(=O)=O)cc2)cc1OC (configuration not stated)	0%	-6%

From PubChem
